SARS PLpro yeast = SARS-CoV PLP inhibition in yeast. S. cerevisiae expressing SARS-CoV PLpro, growth rescue; control for the full effect not named in the record. Potency, µM (series often up to 32.9 µM), inactives show top-dose activity, positive = growth rescue. 330,000 tested, 0.19% active. AID 485353; further: 0% is about no effect; nearly all actives have a fitted effect of over 55% in size; growth read by luminescence after 48 h
Cruzain Triton = inhibitors of Trypanosoma cruzi cruzain with detergent | P25779 | purified cruzain, Z-FR-AMC fluorescence, 0.01% Triton | Potency, µM, inactives show max response, negative = inhibition, hits mostly inhibitors | 200,000 tested, 0.43% active | AID 1478; active means well fitted curve in the direction sought with a large enough effect; inconclusive means small, poorly fitted or top-dose-only effect, or another doubt; inactive means no such curve, though single readings can be large; an effect the other way counts as inactive or inconclusive;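 further: plate controls were neutral wells for no effect and buffer without enzyme for full effect; nearly all actives have a fitted effect of over 40% in size; top concentration of the series not given in the record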
Target sequence (P25779 123-467 limits assumed): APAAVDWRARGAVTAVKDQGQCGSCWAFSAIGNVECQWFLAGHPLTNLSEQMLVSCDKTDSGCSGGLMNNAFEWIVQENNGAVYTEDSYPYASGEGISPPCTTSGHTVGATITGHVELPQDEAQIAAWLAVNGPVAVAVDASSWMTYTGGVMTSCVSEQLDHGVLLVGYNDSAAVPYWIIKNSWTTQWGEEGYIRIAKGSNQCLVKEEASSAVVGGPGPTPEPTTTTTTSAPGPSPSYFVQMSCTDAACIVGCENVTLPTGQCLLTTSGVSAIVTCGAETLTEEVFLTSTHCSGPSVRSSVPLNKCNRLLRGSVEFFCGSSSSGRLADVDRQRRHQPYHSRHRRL
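Detergent-containing run (0.01% Triton X-100) in acetate buffer pH 5.5 with 5 mM DTT: enzyme at 1.5 nM final, 15 min compound preincubation at room temperature, then 2 uM Z-FR-AMC substrate. Activity taken as 60 s fluorescence increase at 360/450 nm.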
2A StopGo = lowers the luciferase signal of an FMDV 2A StopGo reporter | human cells with a luciferase reporter of 2A StopGo recoding; control for the full effect not named in the record | Potency, µM (highest dose often 57.9 µM), without a hit: at the highest dose signal change, negative = less light | 410,000 tested, 1.2% active | AID 1159524; active = well fitted falling curve with a large enough effect; inconclusive = small, poorly fitted or top-dose-only effect; inactive = no such curve, though single readings can be large or run the other way; tested in HEK293T cells; further: on the % scale 0 is the no-effect control and ±100 the full control effect; nearly all actives have a fitted effect of over 45% in size; luciferase light after 4 h
RE007 growth inh = less growth of the S. pombe RE007 Vpr strain | Potency, µM (titrated, usually from 92.2 µM), without a hit: top-dose activity change, negative = less growth | S. pombe RE007 Vpr strain, BacTiter-Glo ATP luminescence, 24 h; control for the full effect not named in the record | 360,000 tested, 0.21% active | AID 651644; active = well fitted falling curve with a large enough effect; inconclusive = small, poorly fitted or top-dose-only effect; inactive = no such curve, though single readings can be large or run the other way;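 further: on the % scale 0 is the no-effect control and ±100 the full control effect; nearly all actives have a fitted effect of over 50% in size; the assay follows cell death caused by Vpr and the record does not say whether a fall means rescue or toxicity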
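Fission yeast strain RE007, carrying one chromosomally integrated HIV-1 vpr copy, was seeded at OD 0.01 in PMG+AL medium with 23 nL pinned compound. After 24 h at 30 °C and 99% humidity, viability was read by BacTiter-Glo luminescence.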
Cruzain noTriton = blocks cruzain activity in detergent-free assay | P25779 | Potency, µM, for the others: max response, negative = inhibition, actives largely listed as inhibitors | purified cruzain, Z-FR-AMC fluorescence, no detergent | 200,000 tested, 2.3% active; active means well fitted curve in the direction sought with a large enough effect; inconclusive means small, poorly fitted or top-dose-only effect, or another doubt; inactive means no such curve, though single readings can be large; an effect the other way counts as inactive or inconclusive;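 further: plate controls were enzyme without inhibitor for no effect and buffer without enzyme for full effect; nearly all actives have a fitted effect of over 40% in size; top concentration of the series not given in the record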
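Detergent-free condition (0.00005% Triton X-100) in acetate buffer pH 5.5 with DTT. 1.5 nM enzyme and compound were pre-mixed 15 min, then 2 uM Z-FR-AMC substrate added; reaction progress from fluorescence change between first and third reads (60 s).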
MARV entry inh = Marburg virus entry inhibition | 300,000 tested, 1.8% active | AID 540276 | Marburg virus pseudotyped entry inhibition, cell reporter; control for the full effect not named in the record; about a third of the inactives were read at about 46 µM | Potency, µM (highest dose often 37.8 µM), without a hit: top-dose activity change, negative = inhibition, actives largely listed as inhibitors; active = well fitted inhibition curve with a large enough effect; inconclusive = small, poorly fitted or top-dose-only effect, or effect the other way; inactive = flat fitted curve, though single readings scatter; tested in HEK293 cells; about a fifth of its hits are not listed in these tables; further: on the % scale 0 is the no-effect control and ±100 the full control effect; luciferase read-out
Lassa entry inh = Lassa virus entry inhibition; Lassa virus pseudotype entry inhibition, cell reporter; control for the full effect not named in the record; Potency, µM (titrated, usually from 37.9 µM), inactives show top-dose activity change, negative = inhibition, hits mostly inhibitors; 300,000 tested, 1.2% active; active means well fitted inhibition curve with a large enough effect; inconclusive means small, poorly fitted or top-dose-only effect, or effect the other way; inactive means flat fitted curve, though single readings scatter; tested in HEK293 cells; further: on the % scale 0 is the no-effect control and ±100 the full control effect; nearly all actives have a fitted effect of over 50% in size; luciferase read-out
NS1 inh = inhibitors of influenza NS1 protein function; S. cerevisiae slowed by influenza A NS1, growth recovery by OD600; Potency, µM (titrated, usually from 46.1 µM), for the others: at the top dose activity, positive = more growth; 270,000 tested, 0.4% active; AID 2326; further: actives are rising curves; nearly all actives have a fitted effect of over 50% in size
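Recovery from NS1-induced slow growth read by OD600 in budding yeast switched to galactose assay medium (pH 6.0, -URA) at 1:100 dilution. Compound 23 nl per well; the matching strain lacking NS1 serves as control.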
* = called active by the depositor; ? = inconclusive; / = no result given; & = joins results of further samples; [ ] = dose if it differs, or a comment. Unless noted, the call rests on the fitted dose curve; in most records, active means well fitted rising curve with a large enough effect; inconclusive means small, poorly fitted or top-dose-only effect; inactive means no such curve, though single readings can be large or run the other way. Potency means the concentration at half of the fitted maximal effect.

SMILES	SARS PLpro yeast	Cruzain Triton	2A StopGo	RE007 growth inh	Cruzain noTriton	MARV entry inh	Lassa entry inh	NS1 inh
Cc1cc(-c2ccccc2)nc(N/N=C/c2cccnc2)n1	0%	/	-2%	1%	/	-2%[46.1 µM]	/	5%
COc1ccc(CN2C(=O)C(=O)N(CC(N)=O)C2=O)cc1	-2%	/	19%	5%	/	7%[46.1 µM]	-4%	/
COc1cccc(CN(C)CC2CCCN(CCc3ccc(Cl)cc3)C2)c1OC (stereo not drawn)	11%	/	?	-15%	/	?	?	16%
CCOc1ccc(-n2cc(-c3ccccc3)c3c(=S)nc[nH]c32)cc1	3%	/	-6%	1%	/	/	/	8%
COc1cccc(-c2cn3c(n2)sc2cc(C(=O)NCc4ccccc4F)ccc23)c1	/	-2.9%	23%	/	17%	/	28%[46.1 µM]	/
COc1cccc(NC(=O)c2ccc3c(O)c(S(=O)(=O)c4ccccc4)c(=O)[nH]c3c2)c1	-1%	/	-16%	13%	/	11%[46.1 µM]	-7%[46.1 µM]	9%
Cc1ccc(-c2ocnc2C(=O)Nc2ccccc2NC(=O)c2ccccn2)cc1	-13%	/	-13%	-1%	/	?	-20%	3%
CC(C)CCN=Cc1c(O)n(-c2ccccc2)c(=O)c2ccccc12	4%	-5.7%	-7%	1%	-2%	1%	?	2%
Cc1nc(SCC(=O)Nc2ccc(C)c(Cl)c2)cc(-c2ccccc2)n1	/	-5.5%	-12%	/	3%	4%[46.1 µM]	12%[46.1 µM]	/
N#Cc1ccc(NC(=O)COC(=O)c2cccnc2Cl)cc1	5%	/	32%[activator]	16%	/	?	-5%	/
O=C(CN1CCCC1=O)NC1(C(F)(F)F)NC(=O)N(Cc2ccccc2)C1=O (stereo not drawn)	0%	-0.9%	/	2%	0%	3%	0%	0%
COc1ccc(Br)cc1CN(C)CC(=O)Nc1ccccc1Cl	-14%	-7.7%	0%	/	2%	?	1%	-23%
Cc1nn(C)c(C)c1NC(=S)Nc1ccc(S(=O)(=O)Nc2ncccn2)cc1	1%	/	-19%	1%	/	10%	15%	-2%
Cc1ccc(-n2nnnc2SCC(=O)N2CCc3ccccc3C2)c(C)c1	-34%	-0.7%	-2%	1%	-12%	6%	-50%[14.3 µM]	-40%
COc1cccc(C2NC(=O)c3sc(=S)n(-c4ccccc4)c3N2)c1 (stereo not drawn)	-1%	-1.4%	?	-1%	?	-14%	-2%	9%
CCOC(=O)Cc1csc(NC(=O)CSc2nc(C)cc(C)n2)n1	18%	/	?	-8%	/	3%	?	/
O=C(CCl)N1CCN(CC(=O)N2CCCC2)CC1	1%	/	?	3%	/	/	/	2%
O=C1CCCN1c1ncc(S(=O)(=O)c2ccc([N+](=O)[O-])cc2)s1	5%	/	?	-7%	/	1%	31%	/
CCN(CC(=O)NCc1ccc(Cl)cc1)C(=O)c1cc(OC)cc(OC)c1	4%	/	-7%	3%	/	-11%[46.1 µM]	-8%	-7%
O=C(c1ccco1)N1CCN(Cc2cc(=O)c(OCc3c(F)cccc3Cl)co2)CC1	-1%	/	-11%	10%	/	3%[46.1 µM]	3%	/
O=C(CSc1nnc(-c2ccc(Cl)cc2)o1)N1CCOCC1	7%	/	6%	3%	/	11%[46.1 µM]	15%	2%
O=C(NCC(=O)N1CCCC(C(F)(F)F)C1)c1ccc(Br)o1 (stereo not drawn)	/	/	4%	2%	/	2%	-4%	/
Nc1nc(SCC(=O)C23CC4CC(CC(C4)C2)C3)n[nH]1	5%	-1.8%	-22%	-12%	-1%	1%	2%	7%
CCOC(=O)c1cc(CC)sc1NC(=O)COC(=O)c1cnccn1	-2%	/	-28%	0%	/	26%	10%	/
CC(C)(C)OC(=O)NCCCCCc1nnc(SCc2cccc(F)c2)o1	0%	/	-22%	-22%	/	/	/	-30%
Continuation.
SMILES	SARS PLpro yeast	Cruzain Triton	2A StopGo	RE007 growth inh	Cruzain noTriton	MARV entry inh	Lassa entry inh	NS1 inh
Cc1cc(C)c2c3c(sc2n1)C(=O)N(Cc1ccccc1)CC(=O)N3	4%	16%	-5%	-1%[3.69 µM]	6%	25%	4%	-3%
CCC(CC)c1nn2c(=O)cc(COc3ccc(NC(=O)c4ccc(Cl)cc4)cc3)nc2s1	/	0.3%	-10%	/	9%	1%[46.1 µM]	-13%[46.1 µM]	/
C=C1CC(C(=O)N/N=C/c2ccccc2)C1	3%	-0.9%	22%	-4%	-7%	?	5%	-9%
COc1cc(/C=N/NC(=O)C(=O)NCc2ccco2)ccc1O	-23%	-8.4%	4%	-9%	-10%	6%	?	-1%
O=[N+]([O-])c1ccc(CSc2ncnc3c2ncn3[C@@H]2O[C@H](CO)[C@@H](O)[C@H]2O)cc1	/	/	-17%	-8%[18.4 µM]	/	18%	-20%	/
CNC(=O)CN(C1CCCCC1)S(=O)(=O)c1ccc(OC)c(Cl)c1	-1%	-1.2%	0%	-1%	-1%	?	4%	-2%
Cc1ccc(C)c(N(C)C(=O)CCS(=O)(=O)c2cccc3nonc23)c1	-1%	/	29%	-8%	/	-5%[46.1 µM]	10%	-2%
C=CCn1c(=O)c2ccccc2n2c(SCc3nc(N)nc(Nc4ccccc4C)n3)nnc12	4%	4.9%	-19%	-19%	-13%	-1%&13%	-1%	?
Cc1cccc(C(=O)Nc2ccccc2-c2nnn(CC(=O)Nc3ccc4c(c3)OCCO4)n2)c1	-2%	4.7%	14%	-9%	?	?	?	-4%
O=S(=O)(Nc1cccc(F)c1)c1ccc2[nH]c3c(c2c1)CCCCC3	/	-16%	29%	/	-15%	/	-14%[46.1 µM]	/
c1ccc2c(c1)Cc1cc(CN3CCOCC3)ccc1-2	3%	-4.9%	44%[activator]	-4%	-6%	?	-2%	4%
COC(c1ccccc1)c1nnc(CCC(=O)N2CCN(C3CCCC3)CC2)o1 (stereo not drawn)	3%	/	-15%	6%	/	?	15%	1%
Cc1ccccc1OCCCc1c(C)n[nH]c1C	25%	/	-20%	1%	/	13%[46.1 µM]	-5%	/
CCn1nc(C)c(CN2CCC(n3nccc3NC(=O)c3ccccc3OC)CC2)c1C	-6%	/	-13%	10%	/	?	2%	-7%
CC(C(=O)c1c[nH]c(C(N)=O)c1)c1ncc(C(F)(F)F)cc1Cl (stereo not drawn)	-3%	/	7%	9%	/	11%[46.1 µM]	0%	/
CC(=O)Nc1ccc(NC(=O)C(C)OC(=O)/C=C/c2ccc3c(c2)OCO3)cc1 (stereo not drawn)	-1%	/	-18%	17%	/	13%	?	/
CCc1cc(=O)oc2c(CN3CCN(C)CC3)c(O)ccc12	-2%	/	-4%	5%	/	-17%	3%	?
CSCCC1C(C#N)=C(N)Oc2n[nH]c(-c3cccs3)c21 (stereo not drawn)	-6%	-4.8%	-9%	-17%	-4%	?	24%	4%
CCN(CC(=O)Nc1ccc(NC(C)=O)cc1)C(=O)/C=C/c1cn(-c2ccccc2)nc1-c1ccc(F)cc1	/	/	8%	-9%	/	-8%	-13%	/
COCCN(C(=O)CCC(=O)Nc1cc(C)on1)C(C(=O)NC1CCCC1)c1ccc(C)cc1 (stereo not drawn)	1%	/	0%	21%	/	?	8%	-4%
Cc1cccc(NC(=O)CN(C)S(=O)(=O)c2ccc(-c3ccc(=O)[nH]n3)s2)c1C	5%	/	-5%	3%	/	/	/	-2%
Cc1ccccc1CN1CCc2nc(N3CCN(c4ccccn4)CC3)ncc2C1	/	-3.4%	?	/	7%	/	-28%[46.1 µM]	/
S=C1NC(C23CC4CC(CC(C4)C2)C3)=CC(c2ccc3c(c2)OCO3)N1 (stereo not drawn)	4%	/	-1%	20%	/	1%[46.1 µM]	5%	/
CNC(=O)/C(C#N)=C\c1ccc(CNS(=O)(=O)c2ccc(Cl)cc2)o1	0%	/	2%	5%	/	?	12%	6%
O=Cc1c(NCCN2CCCC2)c2ccccc2[nH]c1=O	-7%	/	2%	-21%	/	4%	?	-1%
(next part)
SMILES	SARS PLpro yeast	Cruzain Triton	2A StopGo	RE007 growth inh	Cruzain noTriton	MARV entry inh	Lassa entry inh	NS1 inh
O=C1CC(c2ccccc2)CC(=O)C1=CN1CCCC1 (stereo not drawn)	-2%	/	-11%	3%	/	22%[46.1 µM]	30%[46.1 µM]	1%
Cc1cc(C(F)F)nn1CC(=O)NCc1ccccc1F	9%	-1.3%	8%	-1%	-6%	9%	22%	2%
O=C(Cn1cnc2ccccc21)Nc1cc(C(F)(F)F)ccc1N1CCOCC1	1%	-2.3%	0%	-3%	?	5%	-7%	-6%
COc1cccc(N2CC(C(=O)Nc3nnc(SCC(=O)c4ccccc4)s3)CC2=O)c1 (stereo not drawn)	13%	-3.9%	-22%	-7%	-26%	1%	1%	28%
CCOC(=O)c1cc(C)n(CC2CCC(C(=O)Nc3ccc(OC)cc3)CC2)c1C (stereo not drawn)	/	-8.3%	?	/	16%	/	-13%[46.1 µM]	/
CC(c1nnc(SCC(=O)N2CC(=O)Nc3ccccc32)n1Cc1ccccc1)N(C)C (stereo not drawn)	4%	-9.7%	-12%	-1%	13%	3%	-4%	-5%
Cc1ccc(C(=O)COC(=O)c2cc(Cl)nc3ccccc23)cc1	1%	0.3%	-7%	-19%[3.69 µM]	10%	-9%	4%	-5%
CN1CCN(C(=O)C2CCCN(S(=O)(=O)c3ccc(Br)cc3)C2)CC1 (stereo not drawn)	3%	/	-10%	-8%	/	-20%	?	6%
O=C(COC(=O)c1cccc(S(=O)(=O)N2CCCC2)c1)Nc1ccccc1C(F)(F)F	-1%	/	-14%	13%	/	-28%[46.1 µM]	-7%	/
Cc1ccc(CSCC(=O)N/N=C/c2cccc(OC3CSC3)c2)cc1	11%	-4.9%	-8%	4%	3%	2%	-18%	-5%
CCC(CC)C(=O)Nc1cccc(-c2nc3ncccn3c2C)c1	/	3.5%	-14%	/	8%	/	8%[46.1 µM]	/
CC(=O)C(C(C)=O)C(NC(=O)c1cccnc1)(C(F)(F)F)C(F)(F)F	-4%	4.5%	-3%	-26%	2%	-28%	10%	2%

Compound activity: PubChem BioAssay, National Center for Advancing Translational Sciences (NCATS)
